# GIV Gai3 FP: inhibitors of GIV GBA-motif binding to rat Galpha-i3; AID 1224905; percent of control (FP), % (concentration not given with the values); actives 0.42% (n = 210,000); Galpha-i3/FITC-GIV peptide fluorescence polarization, 90 min; stronger effect = lower value; scaled: aluminum fluoride 0%, vehicle 100%;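 active = replicate mean at 85% of control or lower, very high polarization wells dropped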;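 also: wells of about 15 µL received 100 nL stock; the first replicate is given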
# Target sequence (P08753 whole entry, looked up): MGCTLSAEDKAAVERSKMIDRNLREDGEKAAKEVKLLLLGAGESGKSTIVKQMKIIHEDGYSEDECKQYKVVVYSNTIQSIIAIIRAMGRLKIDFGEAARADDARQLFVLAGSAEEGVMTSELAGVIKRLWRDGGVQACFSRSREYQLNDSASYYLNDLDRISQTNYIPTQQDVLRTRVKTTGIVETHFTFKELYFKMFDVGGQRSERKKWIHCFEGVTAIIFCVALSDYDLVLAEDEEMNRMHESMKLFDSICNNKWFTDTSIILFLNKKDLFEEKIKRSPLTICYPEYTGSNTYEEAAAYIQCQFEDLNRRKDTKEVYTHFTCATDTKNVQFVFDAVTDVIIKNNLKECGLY
# HCMV NEC inh: inhibitors of HCMV UL50-UL53 nuclear egress complex interaction; actives 0.15% (n = 190,000); inhibition, % (test concentration not listed); HTRF UL50-UL53 interaction, normalized percent inhibition;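 active = both replicates at 50% or more, plus weaker picks with an unusually low signal ratio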;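 also: stock transfer was 100 nL into about 20 µL; 0% = negative control wells and 100% = wells with untagged competitor protein; inactives centre near -12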
# Sa growth inh: S. aureus growth inhibition. S. aureus RN4220 growth, OD600, 20 h, 42 °C; stronger effect = lower value. relative growth, % (concentration not given with the values). actives 0.53% (n = 170,000). AID 720641;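 active = growth at 42 °C up to 50% and 20 or more points under that at 30 °C, or under 10% at both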;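 also: 300 nL library stock went into each well; scaled to the means of positive and negative controls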
# Sa growth inh second temp: second read-out of Sa growth inh, no call of its own (marks repeat the call); relative growth, %; measured here: growth at 30 °C;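 optical density after 20 h as mean of two plates; 100% = untreated growth and lower means inhibition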
# * marks the source's active call; other numbers are inactive results; x = not tested or not shown; & = joins results of further samples.
entry	smiles	Sa growth inh second temp	HCMV NEC inh	Sa growth inh	GIV Gai3 FP
1	CCOc1ccc(NC(=O)Cn2c(=O)oc3cc(S(=O)(=O)N4CCCC4)ccc32)cc1	71	-6	122	97
2	O=C(CCCCCn1c(=O)c2sccc2n(CC(=O)Nc2cc(C(F)(F)F)ccc2Cl)c1=O)NCc1ccccc1Cl	86	-8	107	104
3	CCOC(=O)C1=C(C)N=c2s/c(=C/c3ccc(OC)c(OC)c3)c(=O)n2C1c1ccc(OC(C)=O)cc1 (configuration not stated)	x	-2	x	110
4	COc1cccc(NC(=O)Cn2c(=O)n(Cc3ccc(C(=O)NCc4ccco4)cc3)c(=O)c3ccccc32)c1	74	-42	91	107
5	CC1(C)CC(=O)C(C=NCc2cccnc2)=C(O)C1	100	x	120	98
6	CCOC(=O)c1cc(S(=O)(=O)N2CCCC2C(=O)Nc2cccc(C)n2)cn1C (configuration not stated)	x	-18	x	98
7	CNc1nc(N)c(C(=O)c2ccccc2)s1	92	-50	99	105
8	CC1CCN(C(=O)c2cc3c(=O)n(C)c4cc(Cl)ccc4c3s2)CC1	94	8	103	101
9	O=C(c1ccc(C(F)(F)F)cc1)N1CCC(c2nc(-c3ccc(S(=O)(=O)N4CCCC4)cc3)no2)CC1	85	-33	94	104
10	COC(=O)c1cccc(C(=O)Oc2ccc(OC(=O)c3cccc(C(=O)OC)n3)c(Cl)c2)n1	101	x	119	97
11	CCCN(CCC)C(=O)Cn1c(=O)n(CCCC(=O)NCc2ccc(C)cc2)c(=O)c2ccccc21	96	-12	101	103
12	CN(C)c1cc(C(F)(F)F)cnc1C#N	73	-18	118	105
13	O=C(CONC1=NCCCCC1)Nc1ccc(Oc2ccccc2)cc1	94	-30	101	x
14	O=c1onc(-c2cccnc2)n1-c1ccccc1C(F)(F)F	96	8	99	107
15	COc1nc(N)c(C#N)c(-c2ccccc2)c1C#N	90	5	105	x
16	CCOC(=O)c1ccc(N=C2SC(C(=O)Nc3ccc(OC)cc3)CC(=O)N2C)cc1 (configuration not stated)	x	-20	x	104
17	CC1CCCC(C)N1C(=O)CSc1nc2ccccc2o1 (configuration not stated)	91	-15	87	x
18	O=C1c2ccccc2C(=O)N1CC(=O)N(c1ccccc1)c1ccccc1	94	x	76	109
19	CCc1ccc2ncc3c(-c4ccc(C)cc4)nn(CC(=O)Nc4ccc(C)cc4)c3c2c1	92	x	104	98
20	Cc1ccc2nc(-c3ccc(Cl)cc3)cc(C(=O)OCC(=O)c3ccccc3)c2c1	84	-58	95	107
21	CN1CC(=O)N(CC(=O)Nc2ccc(OC(F)(F)F)cc2)c2ccccc2C1=O	90	x	110	106
22	Cc1ccc(CNC(=O)N2CCC3(CC2)CC(=O)c2ccccc2O3)cc1	x	-22	x	100
23	Cc1cc(NC(=O)Nc2nnc(N3CCCCC3)s2)ccc1Br	89	-9	115	100
24	O=C(Nc1ccc(S(=O)(=O)N2CCOCC2)cc1)c1ccccc1	84	-11	89	98
25	COc1ccc(CSc2ncn[nH]2)cc1	82	-10&-28	90	102&97
26	CN1C(=O)Cc2cc(S(=O)(=O)NCCN3CCN(c4ccccc4F)CC3)ccc21	85	-16	101	107
27	O=C(CC(NCCc1ccc(Cl)cc1)C(=O)O)c1ccc(Br)cc1 (configuration not stated)	77	9	116	x
28	CCOC(=O)c1c(C)oc2ncnc(N3CCN(C)CC3)c12	x	-2	x	98
29	COC(=O)C(CC(C)C)NC(=O)c1c(-c2c(Cl)cccc2Cl)noc1C (configuration not stated)	70	-21	90	104
30	Cn1c(=O)c2c(ncn2CC(=O)Nc2ccc(Cl)cc2)n(C)c1=O	x	-20&8	x	94&106
31	CN1CCC(N(C)Cc2cc(=O)oc3cc4c(cc23)CCC4)CC1	0.6*	-70	0.3*	x
32	CC(NC(=O)Cn1ccc2cc(S(=O)(=O)N3CCCCCC3)ccc21)c1ccccc1 (configuration not stated)	98	x	126	103
33	COC(=O)c1ccc(OCC(O)CN(Cc2ccccc2O)C2CCCCC2)c(OC)c1 (configuration not stated)	81	-28	74	x
34	COc1ccc(NC(=O)Nc2nnc(N3CCCCCC3)s2)cc1	100	-20	125	103
35	CSc1ccc(CCNC(=O)CN2C(=O)c3cccnc3Oc3ccc(Cl)cc32)cc1	99	x	117	111
36	Fc1cccc(-c2nn3c(CSc4ccccc4)nnc3s2)c1	x	-16	x	104
37	COC(=O)C1=C(C)N(C)C(C)=C(C(=O)OC)C1c1ccccc1	92	-6	95	105
38	Cc1cc(C(F)(F)F)nn1CC(=O)N(C)c1ccccc1	96	-8	93	97
39	Oc1ccc(/C=N/c2c(-c3ccco3)nc3ccc(Cl)cn23)cc1	85	-33	97	100
40	Oc1ccccc1N=Cc1sc2ccccc2c1Cl	68	-23	103	x
41	COC(=O)c1cc(NC(=O)CN(c2ccccc2)S(=O)(=O)N(C)C)ccc1Cl	81	-28	89	106
42	COc1ccccc1C/C(C)=N/NC(N)=S	87	-18	88	x
43	Cc1onc(-c2cccnc2)c1C(=O)NCc1ccccc1	x	-10	x	107
44	Cc1ccccc1NC(=O)Cn1c(=O)n(CCc2ccccc2)c(=O)c2sc3ccccc3c21	89	5	97	109
45	CC(C)(CO)NC(=O)C1CCCNC1=O (configuration not stated)	88	3	96	103
46	CC(=O)Nc1ccc(-c2nnc(SCC(=O)c3ccc([N+](=O)[O-])cc3)o2)cc1	86	-12	103	105
47	CN1C(=O)C(Cc2ccccc2)(c2ccccc2)c2ccccc21 (configuration not stated)	91	-3	121	106
48	CN(C)C1NC(=O)c2cc(-c3ccccc3)sc2N1 (configuration not stated)	92	-42	97	x
49	Cc1cccc(NC(=O)C(F)(F)F)c1C	101	-5	103	99
50	CC(=O)Nc1ccc(S(=O)(=O)Nc2onc(C)c2C)cc1	91	-42	86	x

# Structural class: the entries above with a thiophene ring, fused or not (five)
entry	smiles	Sa growth inh second temp	HCMV NEC inh	Sa growth inh	GIV Gai3 FP
2	O=C(CCCCCn1c(=O)c2sccc2n(CC(=O)Nc2cc(C(F)(F)F)ccc2Cl)c1=O)NCc1ccccc1Cl	86	-8	107	104
8	CC1CCN(C(=O)c2cc3c(=O)n(C)c4cc(Cl)ccc4c3s2)CC1	94	8	103	101
40	Oc1ccccc1N=Cc1sc2ccccc2c1Cl	68	-23	103	x
44	Cc1ccccc1NC(=O)Cn1c(=O)n(CCc2ccccc2)c(=O)c2sc3ccccc3c21	89	5	97	109
48	CN(C)C1NC(=O)c2cc(-c3ccccc3)sc2N1 (configuration not stated)	92	-42	97	x

# Later entries:
entry	smiles	Sa growth inh second temp	HCMV NEC inh	Sa growth inh	GIV Gai3 FP
51	COc1cccc(C(c2nnnn2CCC(C)C)N2CCN(Cc3ccccc3)CC2)c1OC (configuration not stated)	91	3	88	107
52	CCOC(=O)c1c(C)oc2nc(C)nc(NCc3ccc(OC)cc3OC)c12	95	x	97	108
53	COc1cc(C2c3c(-c4ccc(C)cc4)n[nH]c3C(=O)N2c2ccc(F)cc2)ccc1O (configuration not stated)	71	-8	94	109
54	COC(=O)Oc1ccc2c(=O)c(-c3ccccc3Cl)coc2c1	87	0	93	98
55	O=C1CCC(=O)N1CC(O)CCOc1ccc(OCCC(O)CN2C(=O)CCC2=O)cc1 (configuration not stated)	109	-18	121	105
56	CCc1nnc(NC(=O)CSc2nccn2-c2ccc(OC)cc2)s1	98	x	117	96
57	CCc1ccc(-c2[nH]nc3c2C(c2ccccc2)C2=C(CC(C)(C)CC2=O)N3)cc1 (configuration not stated)	x	-27	x	107
58	COC(=O)c1nc2ccccc2n1Cc1ccc(C)cc1	84*	-11	45*	102
59	CNC(=O)c1cccn1-c1nnc(N2CCCCC2)s1	93	-5&-23	95	104&106
60	Cc1ccccc1CSc1nnc2n(C)c(=O)c3sccc3n12	x	-27	x	99
61	COc1ccc(-c2c(C)nn3c(N4CCN(c5ccccc5F)CC4)cc(C)nc23)cc1OC	90	-30	107	99
62	CC1=C/C(=N\Nc2ccnc3cc(Cl)ccc23)CC1	66	-75	84	x
63	CCN(CC)c1cc(C(F)(F)F)nc(-c2ccccn2)n1	x	-14	x	105
64	Cc1ccn2c(Nc3ccc4c(c3)OCCO4)c(-c3ccc(C)o3)nc2c1	2	2	99	106
65	COc1cccc(NC(=O)CCCC(=O)Nc2cccc(OC)c2)c1	77	-26	97	x
66	C=CCNC(=O)C1CCN(S(=O)(=O)N2CCC3(CC2)OCCO3)CC1	82	2	94	99
67	Cc1ccc(NC(=O)Nc2sc(=S)n(C)c2C)cc1	80	x	102	94
68	Cc1ccc(C(c2nnnn2Cc2ccccc2)N2CCC(C)CC2)cc1 (configuration not stated)	89	-16	111	97
69	Cc1nn(CCCC(=O)Nc2ccccc2C(F)(F)F)c(=O)c2nn(-c3ccccc3)c(C)c12	94	x	98	100
70	CCc1ccc(CNC(=O)c2nc(N3CCOCC3)c3ccccc3n2)cc1	x	-42	x	102
71	Cc1coc2c(C)c3oc(=O)c(CCC(=O)N4CCCCC4)c(C)c3cc12	86	0	94	101
72	O=C(Nc1ccc(OC(F)(F)F)cc1)NC1COc2ccccc2C1 (configuration not stated)	96	x	96	100
73	CC(=O)Nc1ccc(NC(=O)Cn2nc(C(=O)Nc3ccc(C)cc3)ccc2=O)cc1	98	x	110	107
74	S=C(NCc1ccco1)N1CCN(c2cccc(Cl)c2)CC1	71	9	83	104
75	C=CCn1c(COc2ccc(CC)cc2)nnc1SCc1nc2sc(C)c(C)c2c(=O)[nH]1	93	1	89	x
76	COc1cccc(CNC(=O)Cn2c(=O)nc(-c3ccccc3F)c3cc(Cl)ccc32)c1	80	x	82	103
77	COc1cccc(NC(CNS(=O)(=O)c2ccc(C)cc2)c2ccccc2)c1 (configuration not stated)	69	-13	86	101
78	CCn1c(=O)cc(SCC(=O)NCc2ccc(C)cc2)c2ccccc21	84	-23	114	103
79	CCOc1ccc(Nc2ncnc3c2nc2n3CCCCC2)cc1	98	x	94	107
80	O=C(CN1CCN(c2ccccc2)CC1)NC1CC1	97	-12	107	101
81	CCOC(=O)c1c(NC(=O)Cc2ccc(Cl)cc2)sc(C(=O)Nc2cccc(Cl)c2C)c1C	x	3	x	104
82	Cc1ccccc1-n1cc[nH]c1=S	93	-36	95	x
83	CC(C)CCNC(=O)c1cc(-c2cccnc2)nc2ccc(S(=O)(=O)N3CCC(C)CC3)cc12	87	x	124	110
84	O=C(Nc1cccc(F)c1)[C@H](CSCc1ccccc1)N1Cc2ccccc2C1=O	89	-23	98	106
85	Cc1ccc(C(=O)C(C)n2nc3n(C(C)C)c(=O)c4ccc(C(=O)NCC(C)C)cc4n3c2=O)cc1C (configuration not stated)	x	-40	x	109
86	C=CCNC(=O)c1cnc2sc(C)c(C)n2c1=O	x	-1	x	110
87	O=C(Cc1ccc2c(c1)OCCO2)N1CCN(C(=O)C2CCCO2)CC1 (configuration not stated)	95	-37	99	x
88	COC(=S)Nc1cc(Cl)cc(Cl)c1	61	-18	72	103
89	Cc1ccc(-n2nc(C)cc2C)nn1	93	-10	99	103
90	N#CCCn1c2c(ccc1=O)CCCC2	99	15	115	109
91	COc1ccc(-c2cnc(C)o2)cc1S(=O)(=O)Nc1ccc(NC(C)=O)cc1	84	x	89	102
92	Cc1ccc(Oc2ncccc2NC(=O)Nc2ccccc2)c2c1CCC2	89	-33	96	102
93	CCOc1ccc(NC(=O)Cn2c(C(=O)OC)ccc2-c2ccco2)cc1	92	4	98	100
94	CCc1ccc(C(=O)c2cncc(Br)c2)cc1	63	x	94	99
95	CCN(CC)CC1CCCNC1 (configuration not stated)	91	-15	85	99
96	CCC(C)NS(=O)(=O)c1cc(C(=O)OC)n(C)c1C (configuration not stated)	x	-32	x	102
97	O=C1C2=C(Nc3ccccc3S(=O)(=O)C2c2ccc(Cl)cc2)c2ccccc21 (configuration not stated)	60	x	43	133
98	CSc1ccccc1-c1nc(-c2ccccc2)no1	95	-22	82	103
99	Cn1c(-c2cc3ccc(OC(=O)c4ccco4)cc3oc2=O)nc2ccccc21	90	-13	102	116
100	O=C(c1ccc(Cl)nc1)N1CCN(C(c2ccccc2)c2ccccc2)CC1	89	-26	87	x

# Continued:
entry	smiles	Sa growth inh second temp	HCMV NEC inh	Sa growth inh	GIV Gai3 FP
101	Cn1c(=S)n(CN2CCOCC2)c2ccccc21	98	-18	119	102
102	CC12CCC(=O)N1C(C(=O)OCc1nnc(-c3ccccc3)o1)CS2 (configuration not stated)	93	-29	74	x
103	COC(=O)c1c(N)c(C#N)c(C)n1-c1ccccc1	100	-11	116	102
104	CCOC(=O)c1c(N=Cc2ccncc2)n[nH]c1C	83	-11	92	100
105	O=C(O)CC1(CC(=O)NCc2cc(F)cc3c2OCOC3)CCCCC1	98	-4	106	102
106	Cc1ccc2cccc(NC(=O)C(C)Oc3ccc(Cl)cc3Cl)c2n1 (configuration not stated)	98	1	110	104
107	Cc1c(C(=O)N2CCCCC2)c(S(=O)(=O)N2CCC(C)CC2)c(C)n1C	83	-17	95	99
108	NC(Cc1c[nH]c2ccccc12)C(=O)NCc1ccccc1 (configuration not stated)	95	5	110	97
109	CC(C)=NNc1ccc2nnc(-c3ccccc3)n2n1	71	-24	101	97
110	CNC(=O)CSc1nnc(Nc2ccc(C(C)C)cc2)s1	95	6	88	x
111	CC(=O)c1ccc(N2CCN(C(=O)CCCn3c(=O)[nH]c4ccsc4c3=O)CC2)cc1	86	-8	96	106

# High-throughput results (PubChem)
